Rango-impB inh – qHTS Assay for Inhibitors of Rango (Ran-regulated importin-beta cargo) - Importin beta complex formation; Potency, µM (titrated, usually from 92.2 µM), for the others: at the highest dose inhibition of complex formation; AID 540263, 2011; hit rate 0.031% among 340,000; Importin subunit beta-1 (Homo sapiens), Q14974; Rango CFP/YFP FRET sensor + importin beta, 45 min; active = rising FRET ratio curve, often small or poorly fitted; inconclusive = mostly compound fluorescence or quenching in the first reads; inactive = flat curves in all reads;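 note: potency is the fitted concentration of half-maximal effect; 0% = DMSO wells and 100% = buffer wells lacking importin beta; nearly all actives have a fitted effect of over 15% in size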
Target sequence (Q14974 whole entry, looked up): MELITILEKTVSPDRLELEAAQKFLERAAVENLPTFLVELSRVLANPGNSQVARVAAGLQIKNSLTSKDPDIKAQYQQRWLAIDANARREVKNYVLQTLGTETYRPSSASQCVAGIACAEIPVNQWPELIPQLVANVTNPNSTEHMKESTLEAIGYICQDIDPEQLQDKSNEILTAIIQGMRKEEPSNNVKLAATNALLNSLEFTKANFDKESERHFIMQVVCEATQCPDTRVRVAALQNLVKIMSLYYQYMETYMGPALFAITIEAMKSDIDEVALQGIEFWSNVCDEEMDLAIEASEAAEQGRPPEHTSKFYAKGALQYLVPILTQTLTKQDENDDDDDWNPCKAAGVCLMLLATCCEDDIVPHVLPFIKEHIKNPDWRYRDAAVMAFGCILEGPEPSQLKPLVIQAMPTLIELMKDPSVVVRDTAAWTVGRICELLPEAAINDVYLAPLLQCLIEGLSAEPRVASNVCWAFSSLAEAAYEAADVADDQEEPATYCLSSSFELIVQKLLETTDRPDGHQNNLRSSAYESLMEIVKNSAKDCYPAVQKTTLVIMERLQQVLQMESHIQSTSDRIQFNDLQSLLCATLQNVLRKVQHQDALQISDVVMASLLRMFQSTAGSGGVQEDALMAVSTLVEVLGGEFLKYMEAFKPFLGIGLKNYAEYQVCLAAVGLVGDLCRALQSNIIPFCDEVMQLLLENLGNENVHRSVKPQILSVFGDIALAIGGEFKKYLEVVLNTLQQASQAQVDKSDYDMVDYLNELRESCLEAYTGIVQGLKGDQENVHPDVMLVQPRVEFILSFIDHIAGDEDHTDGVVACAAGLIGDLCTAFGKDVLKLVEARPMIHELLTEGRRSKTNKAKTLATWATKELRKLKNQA
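FRET biosensor Rango (snurportin 1 IBB between N-terminal EYFP and C-terminal Cerulean), 50 nM in PBS/1 mM DTT/0.02% Tween-20/0.1% BSA, preincubated 5 min RT with compound; 0.125 microM importin beta added, 45 min RT, CFP/YFP FRET ratio read.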
miR-21 FLuc – qHTS Assay for Modulators of miRNAs and/orActivators of miR-21. Potency, µM (doses to about 38.3 µM), without a hit: top-dose reporter change, positive = more light. HeLa miR-21 FLuc reporter, luciferase, 48 h. 340,000 tested, under 10 active. AID 2288, 2010; active = well fitted rising curve with a large enough effect; inconclusive = small, poorly fitted or top-dose-only effect; inactive = no such curve, though single readings can be large or run the other way;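 note: % of control where 0% means no effect; miR-21 action dims this reporter so a rising signal means less miR-21 action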
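HeLa miR-21-FLuc reporter line, endogenous miR-21; 2000 cells/well in DMEM/10% FBS; compound titration up to ~40uM final, 48 h, 37 degree Celsius; luciferase detection reagent, 15 min lysis, CCD luminescence.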
GLA inh pH 4.5 – qHTS Assay for Inhibitors of Human alpha-Galactosidase at pH 4.5; Alpha-galactosidase A (Homo sapiens), P06280; activity change, negative = inhibition, % at 105 µM; AID 1467, 2008; purified enzyme, 4-MU-alpha-Gal fluorescence, pH 4.5; 230,000 tested, under 10 active; inconclusive = small, poorly fitted or top-dose-only inhibition, or a rising curve; inactive = flat fitted curve, though single readings scatter; no compound was filed as active;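 note: 0% = full activity with enzyme and -100% = basal without enzyme; dose as in the result columns while the protocol names 77 µM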
Rango release inh – qHTS Assay for Inhibitors of RanGTP induced Rango (Ran-regulated importin-beta cargo) - Importin beta complex dissociation | Snurportin-1 (Homo sapiens) + GTP-binding nuclear protein Ran (Homo sapiens) + Importin … | Biochemical FRET Rango-importin beta, RanGTP-induced dissociation | Potency, µM (titrated, usually from 46.1 µM), inactives show at the highest dose activity change, negative = inhibition | hit rate 0.071% among 340,000 | AID 540253, 2011; active means falling FRET ratio curve, often poorly fitted, with flat reads before Ran was added; inconclusive means other falling curves, or compound fluorescence or quenching; inactive means flat or rising ratio curve;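 note: potency is the fitted concentration of half-maximal effect; % of control where 0% means no effect; nearly all actives have a fitted effect of over 45% in size; -100% = wells without RanGTP and RCC1; the record marks most hits as doubtful in a second field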
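Recombinant Rango FRET biosensor (EYFP–snurportin 1 IBB–cerulean CFP10) at 0.1 uM premixed with 0.25 uM importin beta in PBS, 1 mM DTT, 0.02% Tween-20, 0.1% BSA. Compound added 5 min; RanGTP-RCC1 (0.6 uM Ran, 2 mM GTP, 0.2 uM RCC1) then triggers release, read at 45 min.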
An asterisk follows results filed as active; u = inconclusive; x = not tested or not shown.

Values run as follows: Rango-impB inh | miR-21 FLuc | GLA inh pH 4.5 | Rango release inh
- CC(=O)Cn1c(N2CCC(Cc3ccccc3)CC2)nc2c1c(=O)[nH]c(=O)n2C
  -1.6% | -3.7% | -5.7 | u
- CCCNC(=O)c1cc(Cl)c(NC(=O)C2=CSCCO2)cc1OC
  2.3% | -42.3% | x | 13.3%
- COc1ccc(CN2CCN(CCCc3ccccc3)C(CCO)C2)c(OC)c1 (centres undefined)
  5.4% | 11.8% | x | -20.6%
- Fc1cccc(CCN2CCNC[C@H]2Cc2cccc3ccccc23)c1
  u | x | x | -0.4%
- Cc1[nH]c2ccccc2c1SCC(=O)O
  -0.5% | -7.6% | 4.5 | 1.3%
- O=C(NCc1cc([N+](=O)[O-])ccc1O)c1cccc(NS(=O)(=O)c2ccccc2)c1
  -0.2% | 17.3% | x | 8.0%
- CCc1ccc(C(=O)CSc2n[nH]c(-c3ccncc3)n2)cc1
  -0.1% | -5.6% | 2.6 | 9.3%
- O=C(Oc1ccccc1-c1nnco1)c1ccc(Cl)cc1
  3.5% | -11.4% | 2.2 | 4.3%
- CCc1cc(C(=O)N2CCCC(CCC(=O)N3CCN(c4ccccn4)CC3)C2)no1 (centres undefined)
  -0.8% | 14.7% | 6.4 | -10.4%
- Cc1ccc(/C=N/NC(=O)c2cccc(S(=O)(=O)Nc3ccccc3Cl)c2)s1
  -4.3% | -9.6% | -5.7 | 1.4%
- Cc1ccc(/C=N/NC(=S)Nc2cccc(S(=O)(=O)N(C)C)c2)o1
  -3.8% | 15.1% | -7.2 | -9.4%
- CCC(Oc1ccccc1)C(=O)Nc1ccccn1 (centres undefined)
  0.0% | -18.7% | -11.7 | 6.9%
- CC1CC(C)(C)N(C(=O)CN2CCN(C)CC2)c2ccccc21 (centres undefined)
  3.6% | 2.4% | x | 33.0%
- O/N=C(\c1ccc(Cl)cc1Cl)c1ncc(C(F)(F)F)cc1Cl
  1.9% | 24.2% | 1.4 | -16.1%
- CC1(C)OC(=O)C2(Cc3ccccc3N3CCCCC32)C(=O)O1 (centres undefined)
  1.1% | -1.7% | -7.3 | -13.0%
- Nc1ncnc2c1ncn2[C@@H]1O[C@H](COS(=O)(=O)O)[C@@H](O)[C@H]1O
  0.0% | x | x | 5.8%
- COc1ccc(CN(C)CCCn2cnc3c(OCc4ccccc4)ncnc32)cc1OC
  0.0% | x | x | 1.2%
- C1CN(c2nc3nonc3nc2N2CCSCC2)CCO1
  -4.8% | 3.1% | -6.1 | 22.0%
- COc1ccc2c(c1)C(NC(C)=O)C(=O)N2CCc1ccccc1 (centres undefined)
  -10.3% | -1.2% | -0.6 | 1.5%
- COC(=O)c1c(NC(=S)Nc2ccc(CC(=O)O)cc2)sc(C)c1C
  u | -4.5% | -29.2 | 2.6%
- Cc1c(Cl)cccc1N1C(=O)C(N2C(=O)c3cccc([N+](=O)[O-])c3C2=O)C1c1cccs1 (centres undefined)
  -2.9% | -3.1% | -2.2 | 0.1%
- COc1ccc(CNC(C)(C)C)cc1Cl
  1.2% | 0.3% | 0.9 | 4.0%
- CCCCOC(=O)Nc1ccccc1C(=O)OC
  -1.3% | 0.7% | 8.2 | 16.3%
- COc1ccc(C(=O)OCC(=O)NC2CCCC2)cc1OC
  -1.8% | 0.4% | x | -4.0%
- COc1ccccc1Oc1cn[nH]c1-c1ccc(OCC(=O)NN)cc1O
  -0.2% | 5.9% | x | -11.9%
- COc1ccc(-c2sc3ccccc3c2C#CCO)cc1
  -2.0% | 11.6% | x | 12.2%
- O=C(CSc1nnc(C2CC2)n1Cc1ccccc1)N1CCN(S(=O)(=O)c2ccccc2)CC1
  u | -1.7% | -1.6 | -6.2%
- Cc1cc(C(F)(F)F)c(C#N)c(=O)[nH]1
  4.2% | -8.7% | u | 9.3%
- CC1(C)C(=O)N(OCc2ccccc2)C(C)(C)C(=O)N1OCc1ccccc1
  2.4% | -0.1% | 1.3 | 1.1%
- COCC(=O)Nc1ccc(S(=O)(=O)Nc2ccccn2)cc1
  4.5% | 0.7% | -1.9 | 0.5%
- N[C@@]12CCc3nonc3[C@]1(O)CC(c1ccccc1)=[N+]2[O-]
  -1.2% | 1.0% | -1.1 | -7.9%
- COc1ccc([C@H]2/C=C\CN(C(=O)CC(C)(C)C)[C@@H](C)C(=O)N2Cc2ccc(F)cc2)cc1
  3.8% | x | x | -11.3%
- CCOC(=O)/C(C#N)=C(C)/C=C1\Sc2ccccc2N1CC
  u | -39.0% | -1.2 | u
- Cc1nc2ccccc2n1Cc1ccccc1Br
  0.7% | 17.4% | x | 2.7%
- CNC(=O)COC(=O)CCC(=O)c1cccs1
  -1.3% | 1.5% | 11.7 | 19.0%
- Cc1ccc(C(=O)C2CCN(CC(=O)Nc3ccc4c(c3)OCCO4)CC2)cc1
  2.4% | -4.1% | 6.2 | 1.2%
- CCCCc1nnc(SCC(=O)Nc2nccs2)n1CC
  2.6% | 5.0% | x | 18.0%
- CC(Sc1nnc(-c2ccco2)n1C)C(=O)N(C)C1CCCCC1 (centres undefined)
  1.9% | x | x | -5.6%
- Clc1c(-c2nnc3n2CCC3)sc2ccccc12
  4.8% | -28.4% | 6.3 | -7.5%
- CNC(=O)C1CCCN1S(=O)(=O)c1ccc(OC)cc1 (centres undefined)
  3.3% | -9.1% | 1.2 | -13.9%
- CCOC(=O)N1CCN(S(=O)(=O)c2cc([N+](=O)[O-])ccc2C)CC1
  0.0% | -11.4% | 7.9 | 0.8%
- COc1ccc(CNC(=O)C(OC(=O)c2ccco2)c2ccc(OC)cc2)cc1 (centres undefined)
  4.0% | 2.3% | -2.0 | 5.1%
- Cc1nc(SCC(=O)Nc2cc(C)on2)c2c3c(sc2n1)CCCC3
  -0.1% | -8.3% | -1.4 | -11.1%
- COc1cc(C2CC(=O)Oc3cc4c(cc32)OCO4)cc(OC)c1OC (centres undefined)
  -7.4% | x | 2.8 | 9.8%
- Cc1cc(C(F)(F)F)cc(NNC(=O)NC(=O)c2ccc(Cl)cc2)n1
  -0.6% | -0.7% | 2.9 | 0.8%
- COc1ccccc1C1=NOC(C)(c2nnc(-c3cccc(Cl)c3)o2)C1 (centres undefined)
  -1.8% | x | x | -6.1%
- Cc1cc(Cl)ccc1OCCCC(=O)Nc1cccnc1
  0.1% | 4.8% | -8.5 | -0.8%
- CNC(=O)COC(=O)c1ccc2c(c1)S(=O)(=O)c1ccccc1C2=O
  u | 0.9% | x | -8.5%
- COc1ccc(CCNC(=O)c2cc(-c3ccccc3)c(N3CCOCC3)s2)c(OC)c1OC
  -0.3% | 12.5% | x | -7.0%
- COc1cc2c(cc1NC(=O)C(C)N1CCN(S(=O)(=O)c3ccccc3[N+](=O)[O-])CC1)oc1ccccc12 (centres undefined)
  1.0% | -11.4% | 7.8 | -13.0%
- Cc1ccc(C(C(=O)NCCc2ccccc2)N(C(=O)c2csnn2)C2CC2)cc1 (centres undefined)
  -0.3% | 0.3% | x | 4.2%
- Cc1c(Cl)c(C(=O)NC2C3CC4CC(C3)CC2C4)nn1C (centres undefined)
  5.4% | -28.9% | 3.4 | 2.7%
- Cc1ccc(/C=N/NC(=O)c2nnn(-c3nonc3N)c2C(C)C)o1
  -0.7% | -4.2% | x | -12.0%
- CC(CCO)Nc1nc2c(c(=O)n(C)c(=O)n2C)n1Cc1cccc(Br)c1 (centres undefined)
  u | 1.2% | -12.5 | -24.7%
- CCCC(=O)Nc1ccccc1NC(=O)c1ccc2c(c1)OCO2
  u | -6.3% | x | -7.7%
- CCCOc1ccccc1N1C(=O)CC(N2CCOCC2)C1=O (centres undefined)
  0.4% | -0.6% | 0.1 | 3.6%
- COc1ccc(CCNC(=O)COC(=O)Cc2ccccc2F)cc1
  0.1% | x | x | 13.5%
- CCOc1ccc(CCNC(=O)CCS(=O)(=O)c2ccc(Cl)cc2)cc1OCC
  0.1% | -0.7% | x | -11.6%
- Cc1ccc(CN2CCN(Cc3ccccc3-c3ccco3)CC2CCO)o1 (centres undefined)
  1.1% | -1.3% | -0.1 | 22.7%
- Cc1ccc(-c2nnn(CC(=O)N(c3ccccc3)C(C(=O)NC(C)(C)C)c3cccs3)n2)o1 (centres undefined)
  -0.4% | -3.4% | -2.3 | 0.5%

Other records follow.
Values run as follows: Rango-impB inh | miR-21 FLuc | GLA inh pH 4.5 | Rango release inh
- CCOC(=O)C1=C(c2cccc(F)c2)NC(=S)NC1C (centres undefined)
  0.7% | 4.6% | 5.0 | -4.8%
- CN1C(=O)/C(=C\c2ccccc2F)Sc2ccc(C(=O)NC3CCN(Cc4ccccc4)CC3)cc21
  -3.7% | 19.1% | x | -1.7%
- CCOC(=O)c1ccc(Nc2ccc(-c3ccc(OC)c(OC)c3)nn2)cc1
  -3.9% | -10.0% | -4.0 | 4.3%
- Cc1ccc(C)c(N=C2CCCN2Cc2ccccc2)c1C#N
  u | -0.6% | 5.7 | u
- COc1ccccc1CCNC(=O)c1cc(C2CC2)nc2c1cnn2C(C)C
  -1.4% | x | x | 13.1%
- O=C1NC(=O)/C(=C\c2cn(Cc3ccccc3F)c3ccccc23)N1
  -2.0% | -7.3% | -12.9 | -4.2%
- COc1cccc(-c2nnc(-c3ccc(C(F)(F)F)cc3)o2)c1
  -3.3% | -57.9% | -5.1 | 18.1%
- COc1ccc(CNC(=O)c2cc(S(=O)(=O)N3CCOCC3)cn2C)cc1
  0.6% | -11.2% | x | 14.1%
- COC(=O)c1nc2nc(-c3cccs3)cc(C(F)(F)F)n2n1
  u | -2.3% | u | -8.2%
- CCN(CC)C(=O)C(=O)Nc1ccc(Oc2ccccc2)cc1
  -1.9% | -28.1% | 2.9 | 20.7%
- Cc1nn(C(=O)CCC(=O)NCc2ccc(OC(C)C)cc2)c2ccccc12
  0.3% | 0.6% | x | 0.1%
- CC(C)CCn1nnnc1C(c1ccc(N(C)C)cc1)N1CCN(C(=O)c2ccco2)CC1 (centres undefined)
  -1.7% | -9.9% | -4.8 | -14.3%
- CC1CCN(CC(O)COc2ccc(-c3ccccc3)cc2)CC1 (centres undefined)
  0.1% | -1.1% | x | -7.9%
- COc1cc(-c2nn3c(C4CCCCC4)nnc3s2)cc(OC)c1OC
  9.1% | -7.9% | 1.9 | 5.3%
- CCCc1nc(S(=O)(=O)Cc2ccc(Cl)cc2Cl)n[nH]1
  -0.2% | 0.1% | 1.3 | -4.2%
- O=C(CCC1CCCN(C(=O)c2ccc3c(c2)OCO3)C1)N1CCN(c2ccccn2)CC1 (centres undefined)
  3.3% | 8.7% | -5.0 | 1.6%
- CN(CC(=O)Nc1ccc(F)cc1)CC(=O)N1CCCC1
  6.2% | x | x | 4.5%
- c1ccc(-c2csc(N3CCN(c4ccccn4)CC3)n2)cc1
  -0.3% | -51.2% | -2.8 | 0.8%
- CC(C)(C)C1CCC(OC(=O)CN2CCOCC2)CC1 (centres undefined)
  0.0% | -22.7% | -6.0 | 6.6%
- Cc1ccc(N2C(=O)C3CC(c4ccccc4)=C4C5C=CC(C6C(=O)N(c7ccc(C)cc7C)C(=O)C56)C4C3C2=O)c(C)c1 (centres undefined)
  0.7% | 8.2% | -0.1 | -7.5%
- COc1ccc(Cl)cc1NC(=O)CSc1nnc(COc2ccccc2)n1N
  1.2% | 0.8% | -10.1 | 20.6%

High-throughput results from PubChem BioAssay.

Some of the compounds tested; rates above refer to the full screens.
